gsp antagonist: antagonizes gsp, the McCune-Albright syndrome mutation. gsp-mutant cells, cAMP HTRF, 30 min; control for the full effect not named in the record. Potency, µM (highest dose often 76.9 µM), for the others: at the top dose activity change, negative = inhibition, hits mostly inhibitors. 0.4% of 340,000 active; active = falling curve of any shape with a large fitted effect; inconclusive = falling curve, mostly with a smaller effect; inactive = flat or rising curve; cell line not stated here;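 further: intracellular cAMP measured with PDE inhibitor Ro 20-1724 present during compound exposure; potency means the concentration at half of the fitted maximal effect; on the % scale 0 is the no-effect control and ±100 the full control effect; nearly all actives have a fitted effect of over 65% in size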
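Cells, 2000/well, grown 16–24 h in DMEM 10% FBS with 0.5 mg/ml G418, then compounds plus […] (300 uM addition stock), 30 min at 37C. cAMP read by HTRF (cAMP-d2 and anti-cAMP antibody-K in lysis buffer) after 30 min RT.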
Menin-MLL FL inh: displaces fluorescein MLL peptide from human menin. Fluorescence polarization, fluorescein-MLL peptide displacement from menin. FP activity change, % at 61.4 µM. 290,000 tested, under 10 active. AID 1766; inconclusive = falling polarisation curve, or a change in total fluorescence; inactive = total fluorescence flat and polarisation flat or rising; no compound was filed as active; the % refers to the polarisation; negative = inhibition;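 further: % of control where 0% means no effect; inhibitors lower the polarisation; unlabelled MLL peptide was the positive control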
TRPML1 blocker: inhibitors of human TRPML1 channel; Q9GZU1; TRPML1-inducible cells, Ca2+ dye fluorescence, FDSS; hits give low values; inhibition of EC80 agonist-evoked calcium signal; activity change, negative = inhibition, % (no concentration beside the values); 0.02% of 390,000 active; AID 624415; in the data active means activity change below about -50%; inconclusive means about -30% to -50%; inactive means above about -30%;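 further: stimulus is agonist 54-4 at its EC80 concentration; on the % scale 0 is the no-effect control and ±100 the full control effect; compound concentration not given in the record; the text of the record puts the active cut at -80%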
Target sequence (Q9GZU1 whole entry, looked up): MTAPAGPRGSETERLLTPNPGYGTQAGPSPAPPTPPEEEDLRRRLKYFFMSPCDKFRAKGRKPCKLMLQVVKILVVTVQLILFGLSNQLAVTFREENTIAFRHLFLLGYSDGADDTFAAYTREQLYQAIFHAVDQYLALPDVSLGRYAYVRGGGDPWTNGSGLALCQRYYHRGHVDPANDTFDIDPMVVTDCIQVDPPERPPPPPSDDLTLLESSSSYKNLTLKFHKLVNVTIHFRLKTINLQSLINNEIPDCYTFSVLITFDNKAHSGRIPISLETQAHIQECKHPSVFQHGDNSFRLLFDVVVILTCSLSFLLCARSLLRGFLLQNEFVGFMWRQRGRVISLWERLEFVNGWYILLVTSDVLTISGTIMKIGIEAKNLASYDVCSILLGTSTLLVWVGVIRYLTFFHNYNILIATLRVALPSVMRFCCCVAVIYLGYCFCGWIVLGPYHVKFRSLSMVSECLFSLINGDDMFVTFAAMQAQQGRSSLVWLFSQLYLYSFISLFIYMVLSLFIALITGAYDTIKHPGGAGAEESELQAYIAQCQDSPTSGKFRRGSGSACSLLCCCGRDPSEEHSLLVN
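TRPML1-DL cells, Tet-induced overnight (~16 h, 37 °C) at 1,500 cells/well, were loaded with Ca8 no-wash dye plus quencher for 45-90 min at room temperature. Compounds were pinned during FDSS kinetic reading; agonist 54-4 at EC80 (4 uM final) then added.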
ClpP mod: qHTS Assay for Activators of ClpP; 1.9% of 340,000 active; AID 651965, 2013; purified B. subtilis ClpP, FRET peptide cleavage, 20 min; ATP-dependent Clp protease proteolytic subunit (Bacillus subtilis (strain 168)), P80244; Potency, µM (series often up to 57.5 µM), for inactives: top-dose activity change, negative = active; active = well fitted falling curve with a large enough effect; inconclusive = small, poorly fitted or top-dose-only effect; inactive = no such curve, though single readings can be large or run the other way; further: potency means the concentration at half of the fitted maximal effect; the source files actives as falling curves though it sought activators and does not explain the sign; nearly all actives have a fitted effect of over 65% in size; many hits overshoot -100%
Target sequence (P80244 whole entry, looked up): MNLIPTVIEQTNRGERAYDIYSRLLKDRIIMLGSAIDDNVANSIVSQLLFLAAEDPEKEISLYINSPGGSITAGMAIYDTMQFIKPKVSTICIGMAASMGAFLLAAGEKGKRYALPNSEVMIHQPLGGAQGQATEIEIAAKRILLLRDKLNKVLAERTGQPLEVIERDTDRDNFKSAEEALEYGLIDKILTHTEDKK
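Buffer: 100 mM Tris/HCl pH8, 100 mM KCl, 0.05% low protease BSA, 2.5% glycerol, 0.01% Tween-20. ClpP 10 microg/mL final; 20 min RT; delta FRET normalized to ADEP and DMSO controls.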
gsp agonist: agonists of gsp mutant (McCune-Albright syndrome) | AID 624287 | 0.13% of 340,000 active | gsp mutant cells, cAMP HTRF, 30 min; control for the full effect not named in the record | Potency, µM (doses to about 76.9 µM), without a hit: at the top dose activation (cAMP increase), most hits filed as activators; active = well fitted activation curve with a large enough effect; inconclusive = small, poorly fitted or top-dose-only effect, or another doubt; inactive = no such curve, though single readings can be large or run the other way; cell line not stated here;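 further: phosphodiesterase inhibitor Ro 20-1724 added with compounds to block cAMP breakdown; potency means the concentration at half of the fitted maximal effect; nearly all actives have a fitted effect of over 60% in size; about a fifth of the inactives were tested at one dose only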
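Cells in DMEM/10% FBS with G418 were pretreated with compounds in DMSO plus […] (300 uM stock) for 30 min at 37C. cAMP was measured by HTRF (cAMP-d2 plus anti-cAMP antibody-K) after 30 min at room temperature.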
TRPML1 ag: agonists of human TRPML1 channel. Q9GZU1. AID 624414. 0.12% of 410,000 active. activation, % (concentration not given with the values). TRPML1-expressing cells, Ca2+ dye fluorescence, FDSS; host cell line not named in the record; reference of the full effect not given here; in the data active = activation above about 50%; inconclusive = about 30% to 50%; inactive = below about 30%; further: 0% is about no effect; the text of the record puts the active cut at 80%
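Calcium fluorescence on an FDSS kinetic reader gave the read-out. Tet-induced TRPML1-DL cells were plated overnight, dye-loaded (Ca8 with quencher, 45-90 min, room temperature, dark), then read 110 s after compound addition, and again 110 s after 4uM final 54-4 (EC80).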
Starred values were filed as active, the others as inactive; ? = inconclusive; . = not tested or not shown; & = joins results of further samples; [ ] = dose if it differs, or a comment.

SMILES	gsp antagonist	Menin-MLL FL inh	TRPML1 blocker	ClpP mod	gsp agonist	TRPML1 ag
Cc1ccc(-n2nc(CO)c(C(=O)NCc3cccs3)n2)cc1C	.	.	16.6	28.2µM*	.	1.0
Cc1cc(NC(=O)CN2C(=O)NC(C)(c3ccc(Cl)cc3Cl)C2=O)no1 (configuration not stated)	0.4%	.	-1.0	.	12.3%	0.8
C[C@H](NC(=O)c1cc2c(cn1)[nH]c1ccccc12)C(=O)O	4.6%	.	30.4	.	4.1%	0.0
NC(=O)c1cc(-c2cccnc2)nc2ccc(Br)cc12	?	0.3	7.0	-2.4%	?	-0.3
CC(=O)c1c(N2CCOCC2)nc(=S)n(Cc2ccccc2)c1C	2.6%	1.3	6.8	-2.3%	-1.0%	-1.2
COc1ccc(CN(C(=O)CN2C(=O)c3ccccc3S2(=O)=O)C(C(=O)NCC2CCCO2)c2ccco2)cc1 (configuration not stated)	-2.1%	1.5	1.4	.	-9.0%[15.4 µM]	-0.4
CCOC(=O)c1ccc(N=c2scc(C)n2CC)cc1	2.7%	2.9	10.1	.	1.8%	0.8
O=C(O)c1ccccc1-c1nc2ccccc2c(=O)n1O	3.9%	-0.3	-11.0	.	-39.4%[inhibitor]	0.6
Cc1ccccc1Nc1nc(N)nc(COC(=O)c2ccc3c(c2)OCCO3)n1	.	.	0.4	-1.8%	-57.6%[inhibitor]	-1.3
CC/C=C/C(=O)N1CC2(CC(c3cccc(NC(=O)COc4ccc(Cl)cc4)c3)=NO2)C[C@H]1C(N)=O (some centres not stated)	-6.2%	-1.8	20.7	-5.8%	.	-0.2
CCOC(=O)C1=CCC(c2cccc(Cl)c2)N(S(=O)(=O)c2ccc(C)cc2)C1 (configuration not stated)	.	.	80.0	-6.5%	.	1.1
Cc1ccccc1C(=O)Nc1cccc(-c2nnc(SCC(=O)O)n2C)c1	-14.9%	-1.9	-11.3	1.2%	-15.6%	0.3
CCc1ccc2[nH]c3nc(SCC(=O)NCC4CCCO4)nnc3c2c1 (configuration not stated)	-12.7%	-5.9	5.9	.	10.8%[15.4 µM]	-0.5
CCCCN(CC)CCNC(=O)C1CCCN(c2ncnc3onc(C)c23)C1 (configuration not stated)	.	.	9.9	0.2%	.	-0.5
O=S(=O)(NCc1ccncc1)c1ccc(S(=O)(=O)NCC2CCCO2)cc1 (configuration not stated)	-3.8%	1.8	15.3	-0.5%	1.2%	-0.3
O=C1CC(c2ccccc2)CC2=C1C=Nc1ccccc1N2 (configuration not stated)	-10.9%	1.8	3.2	.	-27.0%[15.4 µM]	0.6
Cc1nnc(NC(=O)C(C)Sc2nnc(CCNC(=O)c3ccccc3F)n2C)s1 (configuration not stated)	7.2%	1.9	-1.3	.	-1.0%	-0.4
COc1ccc(CCNC(=O)c2ccc3c(=O)n(Cc4ccco4)c(=S)[nH]c3c2)cc1OC	-5.5%	9.7	34.8	0.9%	0.5%	0.0
Cc1c(C(=O)N2CCc3ccccc3C2)oc2ccc(Br)cc12	-17.3%	.	-0.1	-4.7%	-24.3%	1.4
CC(=O)c1cc(F)ccc1OCC(=O)Nc1ccc2c(c1)OCO2	-17.1%	.	-7.6	1.0%	-22.8%[15.4 µM]	2.2
CCC(CO)Nc1ccc(-c2nn(C)c(=O)c3ccccc23)cc1[N+](=O)[O-] (configuration not stated)	9.7%	1.0	-5.6	1.9%	?	-0.7
Cc1cc(NC(=O)c2cccn2-c2nnc(N3CCCCC3)s2)ccc1Br	.	.	?	?	.	1.7
Cc1ccc(C(=O)COC(=O)CNC(=O)CNC(=O)c2ccc(C)cc2)cc1	3.3%	-0.2	-10.1	-29.3%	5.5%	0.0
Brc1cc(Br)c(Oc2cc(Br)c(Br)cc2Br)cc1Br	7.3%	.	-0.9	0.5%	.	-0.5
N=C1C(c2nc3ccccc3s2)=C(O)CN1Cc1ccco1	-6.1%	6.6	-8.5	?	-22.9%	0.6
Cc1ccc(CNS(=O)(=O)c2ccc(-n3cccn3)cc2)cc1	.	.	2.0	-0.7%	-38.0%[inhibitor]	-1.1
CCOC(=O)N1CCN(C(=O)c2ccc(-n3c(=S)[nH]c4ccccc4c3=O)cc2)CC1	?	2.8	11.2	1.5%	5.4%	1.1
C=C1CCN(C(Cc2ccccc2)C(=O)NCc2ccc(Cl)cc2)S(=O)(=O)c2ccccc21 (configuration not stated)	.	-1.7&2.0	-6.1&66.9	.	.	2.7&2.8
COc1ccc(NC(=S)NNC(=O)c2ccccc2OC(F)F)cc1	2.2%	-1.2	5.2	3.2%	-26.4%	0.1
CCCN(CC(=O)Nc1ccccc1OC)C(=O)c1ccc(S(=O)(=O)Nc2ccccc2)cc1	-14.6%	.	0.5	1.6%	-62.2%[inhibitor]	-0.7
CCc1ccc(NC(=O)c2cc(S(=O)(=O)N3CCCC3)c[nH]2)cc1	4.0%	2.2	-10.3	-0.4%	?	-1.0
CCc1cccc(OCC(=O)Nc2cc(S(=O)(=O)N3CCOCC3)ccc2N2CCCC2)c1	-12.9%	.	10.6	-4.6%	23.7%	0.6
Cc1cc(C)nc(SCC(=O)Nc2ccccc2[N+](=O)[O-])n1	3.3%	1.1	0.9	-2.1%	-0.6%	-0.6
O=C(COC(=O)c1ccc(O)cc1)Nc1cc(C(F)(F)F)ccc1Cl	?	-6.1	-6.2	-1.9%	3.4%	4.1
N#C/C(=C/c1cccs1)c1ccccn1	-10.0%	-0.1	-9.9	0.2%	0.7%	5.3
CCN1C(Nc2ccccc2)=NC[C@@H]1CC(C)C	3.8%	3.2	6.8	0.8%	?	9.6
CCOc1ccc(CCNS(=O)(=O)c2ccc3c(c2)NC(=O)CC(=O)N3)cc1OCC	9.2%	-1.1	16.1	-1.2%	0.3%	0.5
COc1cc(OC)cc(C(=O)NCC2CCCN(C(=O)c3oc(C)cc3C)C2)c1 (configuration not stated)	3.6%	-6.4	6.9	-1.4%	6.2%[15.4 µM]	-0.8
CC1CCCCC12NC(=O)N(CC(=O)N1CCN(c3ncccn3)CC1)C2=O (configuration not stated)	8.7%	.	-14.8	?	-2.3%	-0.6
Cc1ccc2[nH]c(=O)c(CN(Cc3ccco3)C(=O)c3ccncc3)cc2c1	-7.4%	0.0	19.0	?	0.2%	-0.3
Cc1sc2c(c1C)C(=O)NC(c1ccccc1F)N2 (configuration not stated)	-3.1%	?	-6.2	.	-12.1%	0.9
CCN(C(=O)CSc1nnc(-c2ccccc2)n1C)C1CCS(=O)(=O)C1 (configuration not stated)	9.2%	-0.4	0.1	1.2%	-7.0%	-0.1
Nc1cc(=O)[nH]c(N2CCN(c3ccccc3)CC2)n1	-1.9%	1.0	0.6	.	2.1%[15.4 µM]	0.6
CNC(=O)NC(=S)NC(=O)c1ccc(OC)cc1	-2.8%	-0.5	-14.7	1.3%	-28.3%	0.3
COc1ccc2ccccc2c1/C=N/Nc1ccc(Cl)c(C(=O)O)c1	-1.3%	?	2.9	.	?	0.1
CCOc1ccc(NC(=O)CCNS(=O)(=O)c2ccc3c(c2)CC(C)N3C(C)=O)cc1 (configuration not stated)	7.4%	-2.9	6.7	-0.3%	-3.5%	0.5
O=C(COC(=O)COc1ccc(Cl)cc1Br)NC1CCCCCC1	0.2%	.	7.5	3.5%	-26.1%	1.6
Cc1ccc(NC(=O)C2CCCN(S(=O)(=O)c3cccc4cccnc34)C2)c(C)c1 (configuration not stated)	.	.	-3.1	-0.7%	.	0.3
CN(C)c1nc(NCc2ccccc2)nc(N/N=C/c2ccc3c(c2)OCO3)n1	-5.4%	7.5	-5.2	-1.9%	-10.6%	2.1
CCN(C(=O)COc1ccc(F)cc1Br)c1c(N)n(Cc2ccccc2)c(=O)[nH]c1=O	0.4%	.	0.8	-2.9%	28.9%	0.0
COc1ccc(OC)c(NS(=O)(=O)c2cccs2)c1	7.2%	0.6	-4.8	-1.6%	-21.7%	-0.9
COCCN(C(=S)Nc1cccc(C)c1)C(C)c1cccnc1 (configuration not stated)	9.0%	-0.6	13.6	.	-0.7%[15.4 µM]	-0.2
Cc1cc(C)cc(OC(=O)c2cccnc2)c1	5.1%	1.9	16.0	-0.5%	-12.5%	1.3
Cc1nn(CCC#N)c(NC(=O)c2ccccc2)c1P(=O)(Nc1ccc(Br)cc1)N1CCOCC1 (configuration not stated)	-1.3%	-3.9	0.1	.	28.8%	0.3
O=C1CC(N2CCN(Cc3ccc4c(c3)OCO4)CC2)C(=O)N1c1ccccc1 (configuration not stated)	0.0%	0.7	-9.3	-1.2%	4.6%	0.2
Cc1cc(C)nc(NC(=O)c2cccs2)n1	6.0%	-0.2	.	-0.8%	3.3%	.
Cc1c(Br)cc(C(=O)N2CCN(CCO)CC2)c(C)c1C	5.1%	-2.0	-11.1	0.6%	0.5%	-0.7
Cn1nccc1C(=O)N/N=C/c1ccccc1[N+](=O)[O-]	-0.6%	2.2	39.1	0.8%	-0.3%	-0.5
CCOc1ccc(NC(=O)CSc2nc3cccnc3n2CC)cc1	4.3%	-0.2	16.1	-0.3%	2.0%	-0.9
COc1cc(/C=N/N2CCCCC2)cc(OC)c1O	-10.0%	-27.2	-11.4	.	?	-0.2

(list continues)
SMILES	gsp antagonist	Menin-MLL FL inh	TRPML1 blocker	ClpP mod	gsp agonist	TRPML1 ag
CCN(CC)c1ccc(C2C3CCCCC3(O)CCN2CC(=O)Nc2ccccc2)cc1 (configuration not stated)	11.0%	3.5	-4.5	0.1%	-2.6%	-0.2
CCC(NC(=O)c1cc(COc2ccc(F)c(F)c2)on1)c1ccncc1 (configuration not stated)	10.0%	-2.1	1.6	-1.0%	3.0%	2.7
CCCn1nc(NC(=O)c2ccco2)c2cc3ccc(C)cc3nc21	-7.2%	1.0	-14.4	-10.3%	17.1%	2.4
Cc1ccc(Cn2c(SCc3ccc(C(=O)NC4CCCC4)cc3)nc3ccncc32)cc1	.	.	-7.9	-7.2%	.	3.0
CCc1ccccc1OCC(=O)OCC(=O)c1c(N)n(C)c(=O)n(C)c1=O	-16.5%	2.3	20.5	1.0%	-4.0%[15.4 µM]	-1.2
CN(CC(=O)NNC(=O)Cc1ccccc1F)S(=O)(=O)c1ccc(Cl)cc1	6.6%	.	16.7	-2.0%	-40.9%[inhibitor]	0.4
Cc1ccc([N+](=O)[O-])cc1N=Cc1ccc(Br)s1	4.6%	1.4	7.6	0.0%	-9.1%	-0.5
Cc1ccc(NC(=O)C(=O)NCCc2c[nH]c3ccccc23)cc1C	8.0%	0.3	7.9	.	-4.7%[15.4 µM]	1.3

Bioassay records: PubChem BioAssay, National Center for Advancing Translational Sciences (NCATS)

Compounds as they come; about 2.1% have a hit in one of these screens.
